# Screening results: PubChem, several laboratories
# Mtb hypoxia inh – reduces hypoxia-regulated biosensor signal in M. tuberculosis | M. tuberculosis hypoxia-regulated fluorescent reporter, fluorescence | fluorescence inhibition, % (test concentration not listed) | AID 1159583 | actives 0.1% (n = 300,000);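 active means 35 to 45% if threefold the growth effect, above 45% if 1.5-fold the growth effect; inactive means the rest, general growth blockers included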;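 further: wells of about 50 µL received 100 nL stock; 0% = vehicle wells and 100% = reference inhibitor wells; whole bacteria with a GFP reporter of the hypoxia response; strong numbers were not always called active; many hits fall short of the cut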
# Sa ugtP lethal – kills S. aureus RN4220 lacking UgtP; S. aureus RN4220 ugtP deletion, OD600 growth, 16 h; some inactives read as strong as hits; growth inhibition, % (test concentration not listed); actives 0.54% (n = 330,000);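 active means z-score under -3 and OD600 up to 0.15 on both plates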;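 further: plate controls were untreated wells for no effect and antibiotic for full effect; wells of about 80 µL received 100 nL stock; the first replicate is given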
# BJeLR viability – BJeLR cell viability loss; actives 0.17% (n = 300,000); BJeLR (HRASV12) viability, CellTiter-Glo ATP luminescence, 48 h; reference of the scale not given here; AID 1554; inhibition, % (no concentration beside the values);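 active means replicate mean above 50%; inconclusive means above 50% but judged a plate artefact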;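 further: 50 nL library stock added to about 25 µL; numbers are from one replicate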
# PrP 5UTR inh – suppresses PrP 5' UTR mRNA reporter expression. cell-based PrP 5' UTR mRNA reporter, plate reader. inhibition, % (test concentration not listed). actives 0.35% (n = 340,000);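 active means every replicate at 50% or more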;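 further: 0 = median of the neutral control wells; tested in H4 reporter cells; numbers are from one replicate; inactives centre near -14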
# Sa RN4220 lethal – kills Staphylococcus aureus RN4220 | inhibition, % (concentration not given with the values) | S. aureus RN4220 growth, OD600, 16 h | actives 0.33% (n = 330,000);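 active means z-score of -3 or lower and OD600 up to 0.18 on both plates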;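 further: plate controls were untreated cells for no effect and reference antibiotic for full effect; stock transfer was 100 nL into about 80 µL; one replicate is shown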
# Autofluor counter – counter-screen for toxin protease inhibitors: compound fluorescence | compound autofluorescence counterscreen, microsphere flow cytometry; active compounds read high | fluorescence intensity (concentration not given with the values) | AID 624483 | actives 3.1% (n = 360,000);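 active means at least 3 SD above the mean of all compounds, about 16000 in these data; inconclusive means too few beads counted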;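 further: 100 nL of 1 mM stock went into each well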
# Mtb hypoxia inh growth – further read-out of Mtb hypoxia inh, marked with its call; growth inhibition, %; measured here: M. tuberculosis growth (absorbance);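 0% = vehicle and 100% = reference antibiotic; read after six days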
# Numbers without * were called inactive; ? = inconclusive; · = no result given.
nr	smiles	Mtb hypoxia inh growth	Mtb hypoxia inh	PrP 5UTR inh	Sa ugtP lethal	Autofluor counter	BJeLR viability	Sa RN4220 lethal
1	COc1cc(OC)c(OC)cc1C=NNC(=O)CCc1c(C)n[nH]c1C	9	-4	·	5	·	·	1.3
2	CCS(=O)(=O)c1ccc(C(=O)Nc2ccccc2)c(Cl)c1Cl	·	·	3	2	4989	5	0.9
3	Cc1cccc(NC(=O)c2cccc(S(=O)(=O)NCc3ccccc3)c2)n1	8	-4	-13	-5	5787	9	3.4
4	OCCC1CN(Cc2cccn2-c2ncccn2)CCN1C1CCCC1 (configuration not stated)	10	10	-4	13	4367	11	6.9
5	COCCNc1nnc(SCC(=O)N(C)c2c(N)n(Cc3ccccc3)c(=O)[nH]c2=O)s1	3	2	-2	3	?	-1	0.8
6	COc1ccc(C2C(C(=O)Nc3ccccc3OC)=C(C)Nc3nnnn32)c(OC)c1 (configuration not stated)	10	8	-15	-1	3260	-3	6.2
7	Cc1ccc(-c2noc(-c3ccccc3C(=O)N3CCOCC3)n2)cc1	6	8	·	8	7303	-3	3.6
8	N#Cc1ccc(-c2ccc(F)cc2)nc1Sc1ccc(F)cc1	3	0	-21	-3	5216	-7	3.9
9	S=C(NC1CCCCC1)N1CCN(Cc2ccccc2)CC1	5	11	-18	1	2473	-1	2.8
10	COC(=O)COc1cccc2c(=O)n(CC(=O)NCCc3ccccc3)ccc12	-1	-2	-49	7	5477	·	-8.0
11	CCSc1nnc(NC(=O)CCN2C(=O)C3CCCCC3C2=O)s1 (configuration not stated)	39	22	-29	-4	6141	·	4.8
12	CCN(CC)C(=O)Cn1cc(S(=O)(=O)CC(=O)Nc2ccc(C(N)=O)cc2)c2ccccc21	0	4	-14	4	6374	2	1.4
13	O=C(NC(Cc1c[nH]c2ccccc12)C(=O)N1CCOCC1)c1cccs1 (configuration not stated)	-2	-2	-8	3	3572	-1	5.5
14	O=C(Nc1nc2ccc(Cl)cc2s1)c1ccc(N2CCCCC2)c([N+](=O)[O-])c1	5	1	-17	-24	2579	14	7.8
15	CC(=O)C1=C(C)NC(=S)NC1c1cccc([N+](=O)[O-])c1 (configuration not stated)	-4	-3	1	4	3669	-24	12
16	Cc1occc1-c1nnc(-c2cc([N+](=O)[O-])cc([N+](=O)[O-])c2)o1	5	6	-23	-2	4208	-6	-2.9
17	COC(=O)c1ccc(OCC(O)CN(CCO)CC(O)Cn2ccc3ccccc32)cc1 (configuration not stated)	0	-10	2	-3	2545	1	1.8
18	Cn1cc(S(=O)(=O)N2CCCC2)cc1C(=O)Nc1cccc(C(F)(F)F)c1	-9	6	-20	7	4626	6	4.0
19	NC(=O)CC(NC(=O)c1ccccc1)c1ccc(N2CCC(N3CCCC3)CC2)c([N+](=O)[O-])c1 (configuration not stated)	-2	11	-16	-2	3459	-2	-1.7
20	COc1ccccc1/C=C\C=Nn1c(-c2ccc(Cl)cc2Cl)n[nH]c1=S	-6	-11	·	8	·	·	11
21	O=C(Nc1ccc(N2CCCC2)cc1)c1ccc(Br)o1	4	-2	-67	-9	3634	3	5.7
22	CCCC(=O)Nc1nc(C)c(-c2csc(Nc3ccccc3C)n2)s1	4	2	-19	-2	4047	5	0.1
23	CC(=O)c1ccc(N(C(=O)CNC(=O)c2ccco2)C(C(=O)NC2CCCC2)c2ccco2)cc1 (configuration not stated)	2	8	-15	10	4090	-15	-0.2
24	Cc1nc(NC(=O)c2cc(-n3cnnc3)ccc2Cl)ccc1Br	-16	-1	-12	23	21255*	7	-3.4
25	COc1ccc2nc(C)cc(N3CCN(S(=O)(=O)c4ccccc4F)CC3)c2c1	-3	-2	-13	14	6586	·	2.5
26	O=C(CCc1nc(-c2ccc(F)cc2)no1)Nc1cccc(C(=O)NC2CC2)c1	2	6	-17	7	4005	·	2.2
27	c1cc2c(cc1Nc1nc(-c3ccc4c(c3)OCO4)cs1)OCCO2	4	7	-42	2	5880	-11	3.7
28	O=C(CCl)Nc1sccc1C(=O)c1ccccc1	·	·	2	4	3094	17	5.6
29	CS(=O)(=O)N(C(=O)NC(=O)NC1CCS(=O)(=O)C1)C1CCCCC1 (configuration not stated)	6	17	-4	3	9205	-1	1.3
30	CC(C)(Oc1ccc(Br)cc1)C(=O)N1CCc2ccccc21	-3	0	-18	62	15346	9	-1.5
31	COc1cccc(/C=C2\C=C(c3ccc(C)cc3)OC2=O)c1OC(C)=O	-4	6	-18	-1	3200	-4	0.0
32	CCN(CC)S(=O)(=O)c1ccc(/C=C/C(=O)OCC(=O)NCc2cccs2)cc1	6	9	-26	10	7046	·	1.6
33	Cc1csc(NC(=O)CSc2nnc(C)c(=O)n2N)n1	4	-1	-28	1	4106	-1	0.2
34	Cc1ccc(CC2CC(=O)N(c3ccc(C)cc3)C2=O)cc1 (configuration not stated)	2	-4	-21	5	4487	-5	7.9
35	CCN(C(=O)CSc1nnc(COc2ccccc2F)n1N)C1CCS(=O)(=O)C1 (configuration not stated)	1	1	3	1	5821	-12	-0.2
36	COc1ccccc1OCc1nnc(SCC(=O)NCc2ccco2)n1Cc1ccco1	·	·	-11	·	15472	-5	·
37	COc1ccc(CC(NC(C)=O)C(=O)NC2CCN(c3c4c(nc5ncnn35)CCC4)CC2)cc1 (configuration not stated)	7	10	-20	7	2547	3	6.2
38	Cc1nnc(N(C)C(=O)c2ccncc2)s1	-7	15	1	3	4528	-1	3.3
39	Cc1[nH]c2ccccc2c1C(=O)CNc1nccs1	·	·	-80	-5	2596	0	3.7
40	COc1ccc(CN2C(=O)c3ccccc3C2=O)cc1C(=O)Nc1ccc(C)cc1C	0	12	-3	14	11320	3	4.8
41	CCn1cc(C(=O)NCCC(=O)OC)c(=O)c2cc3c(cc21)OCO3	1	-1	-8	8	3411	-6	5.2
42	CC(C)(CCc1ccccn1)C(=O)C(CCc1ccccn1)CCc1ccccn1	4	8	-22	0	3854	·	4.8
43	CN1CCCN(C(=O)c2cc3c(s2)CCCC3)CC1	9	13	-10	10	4130	-7	3.0
44	COc1ccc(S(=O)(=O)N2CCN(C(=O)[C@@H]3CCC(=O)N3C3OC(=O)c4ccccc43)CC2)cc1 (some centres not stated)	5	5	-18	0	9701	-2	3.2
45	CC(C)N1CCC(NC(=O)Nc2ccccc2)CC1	5	16	-5	9	2565	9	4.2
46	Cc1ccc(C(=O)NC(=S)Nc2ccccc2C)cc1	5	-2	-43	83*	4268	0	11
47	COc1ccc(CC(C)NS(=O)(=O)c2ccc3c(c2)CCN3S(C)(=O)=O)cc1OC (configuration not stated)	1	2	-3	2	4242	-3	-0.9
48	COc1ccc(NC(=O)Nc2ccc(OC)cc2)cc1	·	·	-63	·	2403	9	·
49	Cc1nn(C)c(C)c1NC(=O)CCl	11	2	-13	-2	3405	-13	1.8
50	Cc1cc2[nH]c(=O)c(=O)[nH]c2cc1S(=O)(=O)Nc1ccccc1F	·	·	-17	-15	6450	-2	2.3

# Individual results from the entries so far:
# In Mtb hypoxia inh growth, `CC(C)(Oc1ccc(Br)cc1)C(=O)N1CCc2ccccc21` is entered as -3
# In BJeLR viability, `CCN(C(=O)CSc1nnc(COc2ccccc2F)n1N)C1CCS(=O)(=O)C1` (configuration not stated) is entered as -12

# Next structures follow.
nr	smiles	Mtb hypoxia inh growth	Mtb hypoxia inh	PrP 5UTR inh	Sa ugtP lethal	Autofluor counter	BJeLR viability	Sa RN4220 lethal
51	O=C(CCN1CCCC1=O)NC1CCCc2c1cnn2-c1ccccc1F (configuration not stated)	0	-2	-7	-2	5139	10	1.3
52	O=C(Cn1cc([N+](=O)[O-])cn1)N1CCN(c2ccccc2)CC1	0	2	-19	7	·	4	1.7
53	O=C(COC(=O)CCN1C(=O)c2ccccc2C1=O)Nc1ccccc1[N+](=O)[O-]	-7	-3	-2	1	3675	·	1.3
54	COc1ccccc1N(C1=NCCCS1)S(=O)(=O)c1ccc(C(C)(C)C)cc1	3	-1	-21	8	4090	2	21
55	Cc1cccc(Cn2c(Cc3ccccc3)nc3ccccc32)c1	8	8	-11	8	2047	0	13
56	CN(c1ccccc1C(=O)Nc1ccc(S(=O)(=O)N2CCOCC2)cc1)S(=O)(=O)c1ccccc1	3	5	-13	0	2017	-13	5.6
57	CCOC(=O)c1cc(CC)sc1NC(=O)CN1C(=O)C(=O)N(CC(C)C)C1=O	1	7	-31	-4	6070	-8	5.3
58	N#Cc1ccccc1NC(=O)CN1CCN(c2ccccn2)CC1	7	6	-56	3	3886	3	4.3
59	CCOc1cccc(C(=O)N(Cc2ccc(F)cc2)C2CCS(=O)(=O)C2)c1 (configuration not stated)	2	1	-1	3	21464*	-2	3.7
60	O=[N+]([O-])c1cc(-c2cccnc2)n[nH]1	3	2	-14	8	3901	·	1.1
61	CN(CC(=O)Nc1cccc(F)c1)CC(=O)Nc1cccc(S(=O)(=O)N2CCCCCC2)c1	3	13	-31	3	5105	3	4.8
62	COc1ccccc1C(=O)N/N=C/C(C)=C/c1ccccc1	·	·	-20	·	5028	7	·
63	Cc1ccc2ccc(C(Nc3cccc(C(F)(F)F)c3)c3cccnc3)c(O)c2n1 (configuration not stated)	3	8	-35	6	4108	3	3.8
64	Cc1cccc(NC(=O)COC(=O)CSc2ccccc2)c1C	-2	4	-15	-4	3815	·	1.4
65	COc1ccc(/C=C/C(=O)c2ccc(OC)cc2O)cc1	·	·	-5	·	3001	0	·
66	Cc1cc(C)c(C#N)c(SC(C(=O)NC(C)(C)C)c2ccccc2)n1 (configuration not stated)	1	-1	-35	1	6262	6	5.6
67	O=C(Nc1ccc(N2CCCCC2)cc1)c1ccccc1	3	8	-16	4	14428	15	2.4
68	COc1ccc(N2CCN(S(=O)(=O)CCNC(=O)COc3ccccc3C)CC2)cc1	7	-2	-17	4	5447	5	0.7
69	COc1ccc(CCNC(=O)c2ccc(OCC(=O)N3CCOCC3)c(OC)c2)cc1OC	2	-1	-30	-3	4882	2	-2.6
70	O=S(=O)(c1ccc(NC(=S)NN=C2CCCCC2)cc1)N1CCOCC1	1	-4	-1	6	3905	-28	3.2
71	CCCn1c(C2CCCN2c2nc(C)cs2)nc2cc(Cl)c(Cl)cc21 (configuration not stated)	12	6	-18	-16	2811	1	-9.9
72	C#CCNC(=O)C1=C[C@@H](C(C)(C)C)C[C@@H](OCc2ccc(CO)cc2)O1	·	·	-10	·	4036	17	·
73	COc1ccc(NC(=O)CN2CCN(CC(=O)Nc3ccc4c(c3)OCO4)CC2)cc1	·	·	-15	1	5722	·	-0.7
74	CCn1nc(NC(=O)Cc2ccc(OC)cc2)c2cc3cccc(C)c3nc21	-7	6	5	6	4057	-4	0.5
75	CSc1cccc(NC(=O)OC2CCCCCCCCCCC2)c1	·	·	-21	·	4350	2	·
76	COc1cc(NC(=O)c2cc3ccccc3o2)c(OC)cc1Cl	·	·	-22	0	4272	4	13
77	CC[C@@H](C(=O)[C@@H](C)[C@@H](O)[C@H](C)CCc1ccc(C)c(O)c1C(=O)O)[C@H]1O[C@](CC)([C@H]2CC[C@](O)(CC)[C@H](C)O2)C[C@@H]1C	·	·	-25	·	5446	2	·
78	CSc1ccc(/C=C/C(=O)c2ccc(NC(=O)C(C)C)cc2)cc1	·	·	-74	-19	2575	-3	-17
79	COc1ccc(N2C(=O)Cc3c2nc(N)c(C#N)c3N)cc1	0	13	19	7	3533	14	6.1
80	O=C(NCC1CCCO1)c1cccc(F)c1 (configuration not stated)	14	15	-12	3	2975	-11	5.6
81	COCCN(Cc1nnc(-c2cccs2)o1)C(=O)c1cccc(S(=O)(=O)N2CCOCC2)c1	8	-4	-23	-6	4026	·	1.5
82	O=C1C(=O)N(CCCN2CCOCC2)C(c2ccc(Cl)cc2)/C1=C(/O)c1ccc(F)cc1 (configuration not stated)	4	13	-21	9	2941	12	4.7
83	O=[N+]([O-])c1cccnc1N1CCN(Cc2ccc3c(c2)OCO3)CC1	3	12	0	5	3169	-5	-0.1
84	Cc1ccc(NC(=O)C[n+]2ccn(C3=C([O-])c4ccccc4C3=O)c2)cc1	1	8	-9	4	3988	3	2.9
85	C/C(Cc1ccccc1)=N\NC(=O)c1ccccn1	·	·	-4	·	5914	12	·
86	CC1(N2CCOCC2)C(=O)c2ccccc2C1=O	-6	-1	-10	12	2539	0	-1.5

# Random draw from the library, and some 4% of all compounds hit somewhere here.
